High-throughput results from PubChem.
OX1R antag-1: antagonists of human orexin 1 receptor. O43613. hit rate 0.43% among 330,000. CHO/OX1R cells, Fluo-8 calcium fluorescence, orexin A. AID 434989. inhibition, % at 5 µM;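 active means inhibition above its plate's threshold, mean inhibition of all tested compounds on the plate plus 3 SD, cut at about 37% in these data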;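 further: 0% = orexin A challenge wells and 100% = SB-334867-A antagonist wells; not every result past the cut was called active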
Target sequence (O43613 whole entry, looked up): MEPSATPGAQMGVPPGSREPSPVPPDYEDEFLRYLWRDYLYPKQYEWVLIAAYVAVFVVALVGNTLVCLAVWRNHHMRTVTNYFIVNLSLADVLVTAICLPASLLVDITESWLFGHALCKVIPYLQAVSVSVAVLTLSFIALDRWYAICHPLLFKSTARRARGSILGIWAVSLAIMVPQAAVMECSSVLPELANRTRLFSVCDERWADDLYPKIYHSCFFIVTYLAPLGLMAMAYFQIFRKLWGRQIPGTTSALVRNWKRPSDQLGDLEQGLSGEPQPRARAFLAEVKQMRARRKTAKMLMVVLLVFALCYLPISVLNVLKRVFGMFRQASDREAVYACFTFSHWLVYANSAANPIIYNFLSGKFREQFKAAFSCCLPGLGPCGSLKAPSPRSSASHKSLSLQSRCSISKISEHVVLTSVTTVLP
OX1R antag-2: antagonists of human orexin 1 receptor (OX1R); OX1R-expressing cells, FRET antagonist read-out; AID 485270; hit rate 1.8% among 330,000; inhibition, % at 6.6 µM; in the data active means inhibition mostly above about 38%, no sharp cut-off; inactive means mostly below about 40%;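 further: 0% = agonist challenge alone and 100% = reference antagonist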
Active calls of the source: *. A portion of the library; most or all hits stand in other tables.

canonical_smiles	OX1R antag-1	OX1R antag-2
Cc1[nH]c2ccccc2c1/C=C/c1nc2ccccc2c(=O)n1-c1ccc([N+](=O)[O-])cc1	-14	2
Cc1ccccc1CS(=O)(=O)c1snnc1C	-12	6
O=C(c1ccc2nc(Cc3cccc(Cl)c3)oc2c1)N1CCC(O)CC1	-16	16
N#CC(c1ccc(O)cc1)c1ncc(C(F)(F)F)cc1Cl (stereo not given)	-21	25
O=C(OCc1nc2ccccc2s1)C1CCN(C2=NS(=O)(=O)c3ccccc32)CC1	0	15
CCN(CC)CCOC(=O)c1ccc(NC(=O)CCCN2C(=O)/C(=C\c3cccs3)SC2=S)cc1	5	25
COc1cccc(NC(=O)CCc2nnc3ccc(NCc4ccco4)nn23)c1	-3	0
c1coc(-c2nnc(NC3=NCCC3)o2)c1	-4	24
c1ccc(CN2CCN(c3nc(-c4ccccn4)nc4ccccc34)CC2)cc1	-17	9
COC(=O)c1nnn(-c2nonc2N)c1CSc1nc2ccccc2s1	-17	31
O=C(Nc1ccc(O)cc1)C1CCCO1 (stereo not given)	-1	12
O=C1CCCN1c1ccc(Br)cc1	-9	8

The list goes on; the last 2 above are carried over.
canonical_smiles	OX1R antag-1	OX1R antag-2
O=C(Nc1ccc(O)cc1)C1CCCO1 (stereo not given)	-1	12
O=C1CCCN1c1ccc(Br)cc1	-9	8
O=C(COC(=O)C1CCN(c2ccc(C(F)(F)F)cn2)CC1)c1ccccc1Cl	-6	18
O=c1[nH]c2ccccc2nc1NCc1ccccc1	-7	4
CCOCC(=O)Nc1nc(C)cc(C)n1	1	-1
COc1ccc(C(=O)Nc2ccc(Cl)cc2C(=O)N2CCCC(C)C2)cc1OC (stereo not given)	-25	8
Cc1cc(NC(=O)C(C)SCC(=O)Nc2cc(Cl)ccc2N2CCN(C)CC2)no1 (stereo not given)	-36	19
Cn1c(-c2ccc(F)cc2)cnc1SCC(=O)N1CCCCC1	-21	10
Cc1ccc(OCCCCN2CCCC(C)C2)c([N+](=O)[O-])c1 (stereo not given)	-33	22
Cc1ccccc1NC1=NC(=S)N(c2ccccc2)C12CCOC(C)(C)C2 (stereo not given)	-25	16
O=C(NCC1CCCO1)c1ccc(COc2ccccc2Br)cc1 (stereo not given)	-11	22
COc1ccc(CCN2C(=O)CS/C2=N\NC(=O)c2cccs2)cc1OC	-17	11
COc1cccc(-n2nnnc2SCC(=O)Nc2ccccc2OC)c1	-23	2
COc1ccc(C2COC(=O)C2=N)c(NC(=O)c2ccc(Cl)cc2)c1 (stereo not given)	-14	8
C=CCNC(=O)c1c(O)c2cccc3c2n(c1=O)CCC3	-14	4
Cc1cccc(NS(=O)(=O)c2cc(C(=O)N3CCN(C)CC3)ccc2C)c1	-18	6
Cc1ccc(/C=N/Nc2ccc(F)cc2F)s1	-19	9
O=C(COc1ccc(S(=O)(=O)N2CCCCC2)cc1)N1CCOCC1	2	6
O=C(CSc1nccn1Cc1ccccc1)Nc1nccs1	-37	12
O=C1CC(c2c(F)cccc2Cl)C(n2cncn2)C(O)=C1C1NCCc2ccccc21 (stereo not given)	-19	8
COc1ccc(CCn2nnnc2C(C(C)C)N2CCC(C(N)=O)CC2)cc1OC (stereo not given)	-9	14
COc1ccc(C(=O)Cc2ccc3c(c2)OCO3)c(O)c1	-20	1
O=C1N(CCCCN2C(=O)C3(OCCO3)c3ccccc32)c2ccccc2C12OCCO2	-9	56
COc1cc(NC(=O)c2ccc3c(SCC(=O)O)c4c(nc3c2)CCC4)cc(OC)c1OC	0	12
CCOC(=O)c1cn(CC(=O)Nc2ccccc2C(=O)OCC)nn1	-18	5
COc1ccc(CCNC(=O)CSc2nc(C)cc(C)n2)cc1OC	-7	5
O=C(Nc1cc(C(F)(F)F)ccc1Cl)C(Sc1ccccn1)c1ccccc1 (stereo not given)	6	13
CCN(CC)C(=O)Cn1cc(C(=O)C(=O)N(C)C2CCN(C)CC2)c2ccccc21	-23	22
O=S(=O)(Nc1ccccc1N1CCOCC1)c1ccc(Cl)s1	-32	19
O=[N+]([O-])c1ccc(CNc2ccc(F)cc2)s1	-5	15
c1ccc(CSC2=NCCCN2)cc1	-1	22
COc1ccc(CCNC(=O)Cn2nnc(-c3ccc(N(C)C)cc3)n2)cc1OC	-20	22
COc1ccc(OCc2nc3ccccc3n2C(C)C)cc1	-12	36
Cc1ccc2nc(SC(C)C(=O)N3CCCCC3)[nH]c2c1 (stereo not given)	-14	8
Brc1ccc2[nH]c3c(c2c1)CCC3	-29	12
O=C(Nc1ccccc1Br)c1ccc2nccnc2c1	-22	20
O=C(NC(=O)N1CCCCC1)c1ccc(Cl)cc1	1	22
O=C(CN1CCOCC1)OCCCc1ccccc1	-20	18
O=C(O)CC/C(=N\Nc1ccc([N+](=O)[O-])cc1)c1ccccc1	-10	21
O=C(CC(=O)NN=C1CCCCCC1)NCc1cccnc1	-2	24
CCOc1ccccc1NC(=O)COc1ccc2c(c1)OCO2	-33	32
NC(=O)[C@@H]1CCCN1Cc1nc(Cc2ccccc2Cl)no1	-5	9
COc1ccc(Cl)cc1NC(=O)Nc1ccc(Br)cn1	-16	10
COc1cccc(Cl)c1NC(=O)N1CCN(c2ccnc3cc(Cl)ccc23)CC1	-28	-3
COCCn1c(=O)[nH]c2cc(C(=O)NCCN3CCN(c4ccccc4)CC3)ccc2c1=O	-13	17
O=C(COC(=O)Cc1ccccc1F)Nc1ccc(F)cc1F	3	28
c1ccc(-c2csc3nnc(SCc4ccc5c(c4)OCO5)n23)cc1	-24	16
O=C(NCc1ccccc1)NC1CCS(=O)(=O)C1 (stereo not given)	7	9
C=CCSc1nnc2n(-c3ccccc3OC)c(=O)c3c4c(sc3n12)CCC4	-26	11
Cc1nc(N2CCOCC2)c2cc(-c3ccccc3)sc2n1	-39	27
FC(F)(F)c1ccc(CSc2nccn2-c2ccccc2)cc1	-19	31
Cc1ccc2c(c1)N(CCC(=O)NCc1ccco1)C(=O)CO2	-7	15
Cc1nc(-c2nnc(SCC(=O)Nc3ccc(C(F)(F)F)cc3)n2C)cs1	-43	2
COc1ccccc1NC(=S)N1CCN(C(c2ccccc2)c2ccccc2)CC1	-17	14
Cc1ccc2c(c1)c1c(n2CC(O)Cn2c(C)nc3ccccc32)/C(=N\O)CCC1 (stereo not given)	-1	4
COc1cccc(OCCOc2ccccc2[N+](=O)[O-])c1	7	35
CCCc1nc(C)c2c(=O)[nH]c(-c3cc(S(=O)(=O)N4CCN(CC)CC4)ccc3OCC)nn12	-24	24
CCc1c(C)nc2[nH]nc(NC(=O)C(F)(F)F)n2c1=O	-11	-2
CN(C)CCCN(Cc1cc2cc3c(cc2[nH]c1=O)OCO3)C(=S)NCc1ccco1	-2	24
COCCOC(=O)C1=C(C)NC2=C(C(=O)CC(c3cccs3)C2)C1c1ccsc1 (stereo not given)	-5	32
CC(Oc1cccc(Cl)c1)C(=O)Nc1ccccc1C(=O)N1CCCCC1 (stereo not given)	-26	31
COc1ccc(NC2CCCCC2NS(=O)(=O)c2ccc(C)cc2)cc1 (stereo not given)	-26	15

2 entries from above, with the structure last:
OX1R antag-1	OX1R antag-2	Molecule
-26	15	COc1ccc(NC2CCCCC2NS(=O)(=O)c2ccc(C)cc2)cc1 (stereo not given)
-43	2	Cc1nc(-c2nnc(SCC(=O)Nc3ccc(C(F)(F)F)cc3)n2C)cs1

Next records:
canonical_smiles	OX1R antag-1	OX1R antag-2
Cc1cc(NC(=O)c2noc3c2CCCC3)n(-c2ccccc2)n1	-17	9
COc1ccc(-c2n[nH]c(=S)nc2-c2ccc(OC)cc2)cc1	-15	11
Cc1ccc(S(=O)(=O)N2CCc3c2cc([N+](=O)[O-])cc3[N+](=O)[O-])cc1	-28	15
CCN(CC)CCCNC(=O)C1c2ccccc2C(=O)N(CCOC)C1c1ccc(F)cc1 (stereo not given)	4	1
COc1cc(SC)ccc1C(=O)Nc1ccc(Br)cn1	-30	13
O=C(Cn1cnc2c(nnn2Cc2ccc(F)cc2)c1=O)NCC1CCCO1 (stereo not given)	3	18
O=C(CN(C(=O)c1csnn1)c1ccc(Br)cc1)NC1CCCC1	-16	15
CC(=O)N=c1sccn1CC(O)c1ccc(Br)cc1 (stereo not given)	-10	4
CC1CCN(C(=O)CSc2nnc(CNC(=O)c3c(F)cccc3F)o2)CC1	-20	-2
CC1(C)CC(=O)C2=C(C1)N(c1ccccc1)C(=O)CC2c1ccsc1 (stereo not given)	-26	3
CCOc1cc(CNCc2cccs2)cc(Br)c1OCC	-11	36
O=C(NCc1ccccc1Cl)c1cnccn1	-7	21
O=C(CSCc1cccc(CSCC(=O)Nc2ccccc2)n1)Nc1ccccc1	-14	34
COc1cccc(C(=O)Nc2ccc(N3CCCC3)cc2)c1	-26	23
CCOC(=O)N/N=C/c1cc(C)n(-c2cccc3ccccc23)c1C	-13	3
CC(=O)N/C(=C/c1ccc2c(c1)OCO2)C(=O)Nc1ccccc1	-8	7
CCCC(=O)NC(Nc1ccccc1F)C(Cl)(Cl)Cl (stereo not given)	-19	4
Cc1ccc(N2C(=O)Nc3ccc(Br)cc3C2(O)C(=O)NCCN(C)C)cc1C (stereo not given)	-26	-10
O=C(CSc1nc(=O)n(CCCN2CCOCC2)c2c1CCCC2)Nc1ccc(F)cc1F	-13	3
CCO[C@H]1OC(C(=O)N2CCN(Cc3ccc4c(c3)OCO4)CC2)=C[C@@H](c2csc3ccccc23)[C@@H]1CCCO	-24	16
CC(=O)Nc1ccc(S(=O)(=O)NC2CC2)cc1	-10	9
CCCC(=O)N1CCN(c2ccc(NC(=O)c3ccco3)cc2)CC1	-5	1
Cc1cc(C(=O)Oc2ccccc2C(=O)O)c(C)o1	-1	26
CCc1nnc(NC(=O)C2CCCN(S(=O)(=O)c3ccccc3)C2)s1 (stereo not given)	-29	8
CCOC(=O)C1CCCN(C(=O)c2ccccc2NC(C)=O)C1 (stereo not given)	5	3
COc1ccc(OC)c(/C(C)=N\NC(=O)c2cc3cc(Cl)ccc3n2C)c1	-32	-11
CC(=O)N1CCN(CC(=O)Nc2c(Cl)ccc(C)c2Cl)CC1	-10	9
O=C(Nc1ccc(N2CCCC2)c(Cl)c1)c1ccc2c(c1)OCCO2	-20	7
COc1cc2cc(C(c3nnnn3C3CCCC3)N3CCCCCC3)c(=O)[nH]c2cc1OC (stereo not given)	-14	-6
COc1ccc(C(C)=O)cc1CN1C(=O)NC(c2ccccc2)(c2ccccc2)C1=O	-33	22
O=C(Nc1nncs1)c1cccc(S(=O)(=O)N2CCCCC2)c1	-8	16
CCCC(=O)N/C(N)=N/c1nc2ccccc2o1	-3	8
COC(=O)C1=NN(C(=O)c2cccc(Cl)c2)C(O)(C(C)(C)C)C1 (stereo not given)	-18	18
Cc1cccc(C)c1NC(=O)CSc1nnc(-c2ccco2)c(-c2ccco2)n1	-20	14
CCc1ccc2[nH]c(=O)c(CN(Cc3ccccc3OC)C(=O)Nc3ccccc3OC)cc2c1	-28	9
O=C(NNS(=O)(=O)c1ccccc1)c1cc2cc3ccccc3nc2s1	12	39
O=C(CCCOc1ccc(Cl)cc1)NCC1CCCO1 (stereo not given)	-11	21
CC(C)CN(C(=O)COC(=O)Cc1c[nH]c2ccccc12)C1CCS(=O)(=O)C1 (stereo not given)	-21	6
Fc1cccc(F)c1CN1CCN(c2ncccn2)CC1	-7	7
Cc1c(NC(=O)C(C)OC(=O)/C=C/c2ccco2)c(=O)n(-c2ccccc2)n1C (stereo not given)	6	21
CCn1cc(CCC(=O)NC2CCCC2)c2ccccc21	-16	1
O=C(NCCCN1CCCC1=O)C1CCN(S(=O)(=O)c2c(Cl)cccc2Cl)CC1	-5	6
Cc1ccc(CCN2CC(C(=O)NCCC(C)C)CC2=O)cc1 (stereo not given)	-20	8
Cc1cccc(N2Cc3ccccc3C2=NC(=O)c2ccc(Cl)nc2)c1	-33	15
CC(=O)Nc1ccc(NC(=O)c2cccc(C(=O)OC(C)C)n2)cc1	-32	32
COc1ccc(C2CC(c3ccccc3)=NN2c2ccc(/C=N/NC(=O)c3ccncc3)cc2)cc1 (stereo not given)	-14	20
CC1CN(C(=O)CCNC(=O)c2ccccc2Cl)CC(C)O1 (stereo not given)	0	3
CN(C)c1ccc(N/C=C/C(=O)c2ccccc2)cc1	-9	18
CC(C)Cc1nnc(NC(=O)Cc2cccs2)s1	-22	12

Three entries out of the list above, arranged by the value under OX1R antag-1, low to high:
canonical_smiles	OX1R antag-1	OX1R antag-2
O=C(CCCOc1ccc(Cl)cc1)NCC1CCCO1 (stereo not given)	-11	21
O=C(NCCCN1CCCC1=O)C1CCN(S(=O)(=O)c2c(Cl)cccc2Cl)CC1	-5	6
CC1CN(C(=O)CCNC(=O)c2ccccc2Cl)CC(C)O1 (stereo not given)	0	3
